2A Renilla = FMDV 2A StopGo reporter, Renilla signal. Potency, µM (series often up to 57.5 µM), without a hit: top-dose signal change, negative = less light. AID 1745857. HEK cells with a luciferase reporter of 2A StopGo recoding. hit rate 0.32% among 120,000; active means well fitted falling curve with a large enough effect; inconclusive means small, poorly fitted or top-dose-only effect; inactive means no such curve, though single readings can be large or run the other way; also: nearly all actives have a fitted effect of over 55% in size; overnight with compound
StopGo FLuc = FMDV 2A StopGo reporter, firefly signal; HEK cells with a luciferase reporter of 2A StopGo recoding; Potency, µM (titrated, usually from 57.5 µM), inactives show at the top dose signal change, negative = less light; hit rate 0.23% among 120,000; active = well fitted falling curve with a large enough effect; inconclusive = small, poorly fitted or top-dose-only effect; inactive = no such curve, though single readings can be large or run the other way; also: nearly all actives have a fitted effect of over 60% in size; overnight with compound
* marks the source's active call; other numbers are inactive results; u = inconclusive; [ ] = dose if it differs, or a comment. % is scaled to controls: 0 for no effect and ±100 for the full control effect; potency is read from the fitted curve at half-maximal effect. These rows are one share of the data; count on the stated rates, not on these rows.

Order of results – 2A Renilla	StopGo FLuc
1	COC(=O)C(C)(C)NC(=O)CCNC(=O)C1CCCC1
→ 0%	0%
2	Cc1ccc(Cn2c(SCCC(=O)O)nc3c2c(=O)n(C)c(=O)n3C)cc1
→ 14%	10%
3	COc1cc(C(=O)Nc2ccc(NS(C)(=O)=O)cc2)cc2c1OCCO2
→ 33%[activator]	81%[activator]
4	CCOC(=O)c1cc2n(n1)CC(C)(C(=O)NCCC(C)C)N(c1ccc(C)c(F)c1)C2=O (stereo not given)
→ -3%	-8%
5	CN1CCN(c2nc3c(c(=O)n(C)c(=O)n3C)n2CC(N)=O)CC1
→ -11%	-4%
6	COc1ccc(CCNc2nc(-c3ccc(F)cc3)cc(C(F)(F)F)n2)cc1OC
→ 4%	-11%
7	CC(C)(C)C(=O)NC(NC(=O)C(C)(C)C)c1ccc(F)cc1
→ 31%[activator]	22%
8	COc1ccc(CNC(=O)Cn2c(=O)n3nc(-c4cccc(F)c4)nc3c3ccccc32)cc1OC
→ -3%	-10%
9	O=c1nc(-c2ccccc2)c2cc(Br)ccc2[nH]1
→ -9%	-8%
10	COc1ccc(OC)c(Nc2nc(NCCc3ccccc3)nc3c2cnn3-c2ccccc2)c1
→ 8%	5%
11	O=C(COc1ccc(Cl)cc1)Nc1c(NC2CCCCC2)c2ccccc2oc1=O
→ 0%	-16%
12	CCc1cccc2c(C(=O)CN3CCC(C(=O)N4CCCCCC4)CC3)c[nH]c12
→ -11%	-8%
13	COCCNC(=O)CSc1cc(C)c2ccccc2n1
→ -1%	0%
14	Cc1sc(N)nc1Cc1ccccc1
→ 1%	-3%
15	Cn1nc(CC(=O)OCC(=O)NC(C)(C)C)c2ccccc2c1=O
→ u	-33%
16	O=C(NC1CCN(Cc2cccc(C(F)(F)F)c2)CC1)C1CCCCC1
→ u	-10%
17	CCCOc1cccc(C(=O)Nc2cc(-c3nc4ncccc4o3)ccc2OC)c1
→ 5%	4%
18	CCN1C(=O)c2ccccc2S(=O)(=O)c2ccc(C(=O)NCc3ccc(OC)cc3)cc21
→ -9%	-18%
19	COc1ccc(CN(C(=O)Nc2ccccc2)c2ccccn2)cc1OC
→ 13%	52%[activator]
20	Fc1ccccc1Cc1cn2cc(-c3ccc(Cl)cc3)nc2s1
→ 9%	339%[activator]

Reformatted with each value named: part of the list above
11. O=C(COc1ccc(Cl)cc1)Nc1c(NC2CCCCC2)c2ccccc2oc1=O
  2A Renilla: 0%
  StopGo FLuc: -16%
12. CCc1cccc2c(C(=O)CN3CCC(C(=O)N4CCCCCC4)CC3)c[nH]c12
  2A Renilla: -11%
  StopGo FLuc: -8%
13. COCCNC(=O)CSc1cc(C)c2ccccc2n1
  2A Renilla: -1%
  StopGo FLuc: 0%
14. Cc1sc(N)nc1Cc1ccccc1
  2A Renilla: 1%
  StopGo FLuc: -3%

(list continues)
Order of results – 2A Renilla	StopGo FLuc
21	COC(=O)c1cc(C)nc2c1c(=O)n(Cc1nc(-c3cccc(OC)c3OC)oc1C)c(=O)n2C
→ -6%	3%
22	CCOC(=O)N1CCc2c(sc(NCc3cccc(F)c3)c2C(=O)Nc2ccc(OC)cc2OC)C1
→ 1%	u
23	CCN(CC1CCCO1)S(=O)(=O)c1cccc(C#N)c1 (stereo not given)
→ 9%	3%
24	O=C(CSc1ccc2c(c1)CCC2)Nc1ccc2c(c1)OCCCO2
→ 0%	0%
25	Cc1ccccc1OCc1nnc(SCC(=O)N2CCc3ccccc3C2)n1C
→ 17%	-11%
26	Cc1ccc(-c2ccc(=O)n(Cc3noc(C(=O)NCc4cccs4)n3)n2)cc1
→ 129%[activator]	2%
27	CC(=O)OCc1cc(=O)n2nc(C3CCCCC3)sc2n1
→ 11%	20%
28	Cc1ccc(NC(=O)C2=CC(c3ccc4c(c3)OCO4)=NS(=O)(=O)N2C)cc1
→ 28%	-3%
29	COc1ccc(-c2ocnc2C(=O)Nc2cccc(Cl)c2)cc1
→ 3%	112%[activator]
30	CCOC(=O)c1ccc(NC(=O)Cn2cnc3sc(C(=O)OCC)c(C)c3c2=O)cc1
→ -3%	-15%
31	N#Cc1cccc(C(=O)OCc2ccccn2)c1
→ 6%	11%
32	CCOc1cc(CNc2ccc(N3CCOCC3)c(C(=O)O)c2)cc(Br)c1OCC
→ 9%	-1%
33	CS(=O)(=O)N1CCN(C(=O)CNc2cccc(F)c2)CC1
→ -9%	-2%
34	Cc1cc(-c2csc(Nc3ccccn3)n2)ccc1F
→ u	86%[activator]
35	CC(C)C(=O)Nc1ccc2oc(-c3cncc(Br)c3)nc2c1
→ 5%	184%[activator]
36	O=C(NCCc1ccccc1)Nc1cccc(CN2CCOC2=O)c1
→ u	0%
37	Cc1cc(C)c(S(=O)(=O)Nc2cccc(-c3cn4ccccc4n3)c2)c(C)c1
→ 209%[activator]	68%[activator]
38	CCOc1ccc(-c2nonc2NC(=O)c2oc3cc(C)ccc3c2C)cc1
→ -7%	-17%
39	O=C(O)c1cc(Cl)ccc1Cl
→ 6%	-1%
40	CCc1cc2c(cc1C1(C)OCC(C)O1)C(C)(C)CCC2(C)C (stereo not given)
→ -2%	1%

More structures follow.
Order of results – 2A Renilla	StopGo FLuc
41	COc1ccccc1Oc1coc2cc(OCc3cccc(Cl)c3)ccc2c1=O
→ 1%	50%[activator]
42	Cc1cc(=O)oc2cc(OCC(=O)N(C)Cc3ccccc3Br)ccc12
→ 63%[activator]	42%[activator]
43	CCc1ccc(-c2csc(/C(C#N)=C/Nc3ccccc3C(C)C)n2)cc1
→ -2%	4%
44	CSc1nc(C)cc(Nc2c(C)cc(C)cc2C)n1
→ 2%	5%
45	COC(=O)C1=CN(C(C)C)C=C(C(=O)OC)C1c1ccsc1
→ 15%	-2%
46	Cc1csc(NC(=O)c2ccc(Oc3ccc(F)cc3Br)nc2)n1
→ u	u
47	COc1ccccc1-c1cc(C(F)(F)F)nc(N2CCN(Cc3ccccc3)CC2)n1
→ 9%	14%
48	CCN(CC)Cc1ccc(CNC(=O)C2CCN(c3nc4ccccc4o3)CC2)cc1
→ -5%	7%
49	Cc1cc(C)cc(-n2c(SCC(=O)NCC3CCCO3)nc3c([nH]c4ccccc43)c2=O)c1 (stereo not given)
→ 2%	6%
50	Cc1cc(C(=O)OCC(=O)Nc2ccc(Br)c(C)c2)c2ccccc2n1
→ 0%	18%
51	Cc1ccc(N(CC(=O)Nc2ccc(C)c(Cl)c2)S(=O)(=O)c2cccs2)cc1
→ -3%	-30%
52	CCc1ccc2oc(=O)cc(CN3CCN(CC(=O)N4CCCCC4CC)CC3)c2c1 (stereo not given)
→ -11%	0%
53	CC(C)C[C@H](Nc1ncnc2sc3c(c12)CCCC3)C(=O)O
→ 31%[activator]	82%[activator]
54	CC(=O)c1cccc(Nc2nc(-c3ccc(Cl)cc3)nc3ccccc23)c1
→ 7%	39%[activator]
55	COc1ccc(NC(=O)CCCN2C(=O)C(c3ccccc3)Oc3cccnc32)c(OC)c1 (stereo not given)
→ 8%	-6%
56	CC(C)Oc1ccc(CNC(=O)CCCn2c(=O)c3cccn3c3cccnc32)cc1
→ -10%	0%
57	CC(=O)c1ccc(NC(=O)CN(C)S(=O)(=O)c2cc3c(cc2Cl)NC(=O)CO3)cc1
→ 4%	-14%
58	COc1ccc(CN(C)C(=O)C2CCN(C(=O)c3ccc(OC)c4ccccc34)CC2)cc1
→ 8%	-18%
59	CCCCn1c(=O)c2oc3ccccc3c2n(CC(=O)Nc2cc(C)ccc2C)c1=O
→ -4%	-18%
60	COc1cccc(CCNC(=O)c2c(O)nc3ccccn3c2=O)c1
→ -5%	28%

Next results follow.
Order of results – 2A Renilla	StopGo FLuc
61	COc1ccccc1NC(=O)c1sc2nc(C)c(C(=O)Nc3ccc(C)cc3C)c(-c3ccc(Br)cc3)c2c1N
→ 10%	-19%
62	O=C(Cn1nnc(-c2ccc(C(F)(F)F)cc2)n1)NCCc1ccccc1
→ -4%	-6%
63	O=C(Nc1nnc2n1CCS2)c1ccccc1C(F)(F)F
→ 44%[activator]	43%[activator]
64	CC(C)=CCC/C(C)=C/C=N/NC(=S)Nc1ccccc1
→ 19%	31%[activator]
65	CCc1ccc(-n2c(=O)c3cccnc3n2CC(=O)NCc2ccc(C)cc2)cc1
→ 21%	-9%
66	COc1ccc2[nH]c(=O)c(COC(=O)c3ccc(F)cc3)cc2c1
→ -3%	9%
67	CCn1c(=O)c(-c2noc(C(=O)N3CCC(c4ccccc4)C3)n2)nn(-c2ccc(C)cc2)c1=O (stereo not given)
→ 2%	16%
68	CCCCc1cc(=O)oc2cc(C)cc(OCC(=O)O)c12
→ 7%	7%
69	CC(SC1CCCC1)C(=O)Nc1ccc(Cl)cc1Cl (stereo not given)
→ -5%	25%
70	CC(O)CNc1nc(-c2ccco2)c2c(c1C#N)CCCC2 (stereo not given)
→ -3%	-10%
71	Cc1ccc(Cl)cc1NC(=O)C(C)n1nnc2sc3c(c2c1=O)CCCC3 (stereo not given)
→ -3%	-11%
72	CCOc1ccc(Br)cc1S(=O)(=O)Nc1cccc(-c2ccc(OC)nn2)c1
→ 57%[activator]	u
73	C=Cc1ccc(Cn2ccn(-c3ccc(F)c(F)c3)c(=O)c2=O)cc1
→ -1%	0%
74	Cc1cc(=O)oc2cc(OCC(=O)NC3CCN(Cc4ccccc4)CC3)ccc12
→ -6%	-1%
75	O=C(CC(c1cccs1)N1Cc2ccccc2C1=O)Nc1ccccc1 (stereo not given)
→ 126%[activator]	35%[activator]
76	Cc1cccc(-c2nc3nc(C)cc(N4CCN(c5ccccc5)CC4)n3n2)c1
→ -16%	-18%
77	CCCCOC(=O)c1ccc(NC(=O)c2cc(-c3cccs3)on2)cc1
→ -11%	4%
78	O=S(=O)(Nc1ccc(-c2ccc(N3CCCC3)nn2)cc1)c1ccccc1Cl
→ 173%[activator]	27%
79	CC(C)CN1CCc2nc(Nc3ccc(F)cc3F)ncc2C1
→ 7%	0%
80	Cc1ccc(NC(=O)c2c(C)nc3sc(C(=O)Nc4ccc(F)cc4)c(N)c3c2-c2ccc(C)o2)c(C)c1
→ -11%	3%

(continued)
Order of results – 2A Renilla	StopGo FLuc
81	Cc1ccc2c(C)nc(Nc3nc4ccccc4c(=O)[nH]3)nc2c1
→ 7%	11%
82	CCOc1ccccc1NC(=O)CC1C(=O)Nc2nc3ccccc3n21 (stereo not given)
→ -16%	-3%
83	O=S(=O)(c1ccc(Br)cc1)N1CCN(C/C=C/c2ccccc2)CC1
→ 40%[activator]	9%
84	COc1cc(/C=C(/C#N)c2ccccn2)ccc1OCC(F)(F)F
→ -10%	166%[activator]
85	COc1ccccc1CNC(=O)C1CCN(c2nnc(C)c3c(C)n(-c4ccccc4)nc23)CC1
→ 8%	0%
86	CCCCNc1nc2c(S(=O)(=O)c3ccc(Cl)cc3)nnn2c2ccsc12
→ 74%[activator]	-22%
87	CC(C)Cn1c(=O)c2sccc2n2c(CCCC(=O)NCCc3ccc(Cl)cc3)nnc12
→ -11%	11%
88	CCCn1c(=O)[nH]c(=O)c2c3c(cnc21)C(=O)CC(c1cccs1)C3 (stereo not given)
→ -1%	2%
89	COc1cccc(-c2ocnc2C(=O)NCc2cc(OC)ccc2OC)c1
→ 13%	0%
90	COc1ccc(NC(=O)CCCSc2nc(-c3ccco3)cc(C(F)(F)F)n2)cc1
→ 11%	-3%
91	CCCCCCNC(N)=S
→ -8%	-4%
92	CCOc1cc2cc(C(=O)c3cc(C)ccc3O)cnc2cc1OCC
→ -6%	-8%
93	COc1ccc(C(C)=O)cc1COC(=O)Cc1ccc(Cl)cc1Cl
→ 4%	0%
94	CCN1C(=O)COc2ccc(NC(=O)c3cc(=O)c4cc(Cl)c(C)cc4o3)cc21
→ 7%	11%
95	Brc1cccc(-c2nc(-c3cccnc3)no2)c1
→ 6%	0%
96	Cc1ccc(C2C=C(c3ccc(Cl)cc3)Nc3nc(NC(=O)c4ccco4)nn32)cc1 (stereo not given)
→ -7%	6%
97	CCSC1=NC2(CCN(C(=O)NC3CCCCC3)CC2)N=C1c1ccc(OC)cc1
→ -15%	-17%
98	CC(C)(C)c1ccc(C(=O)Oc2ccc(/C=N/O)cc2)cc1
→ 2%	10%
99	Cc1noc(/C=C/c2ccccc2F)c1S(=O)(=O)N1CCCC(C(=O)N2CCC(C)CC2)C1 (stereo not given)
→ 1%	7%
100	Cc1ccc(C(=O)/C=C/c2ccc3oc4ccccc4c3c2)cc1
→ -3%	22%

Additional results follow:
Order of results – 2A Renilla	StopGo FLuc
101	O=C(CCCCn1c(=O)c2ccccc2n(Cc2cccc(F)c2)c1=O)NCCc1ccccc1
→ -6%	-2%
102	CC(C)CCNc1nc(C(=O)Nc2nccs2)cs1
→ -4%	46%[activator]
103	CCOc1ccc(C(=O)Nc2onc3c2CCCC3)cc1
→ -4%	-64%
104	COc1ccc(C(=O)C(C)OC(=O)Cc2ccc(OC)c(F)c2)cc1 (stereo not given)
→ 7%	10%
105	c1ccc(-c2nc(CN3CCCC3c3ccsc3)co2)cc1 (stereo not given)
→ 0%	26%

Among those listed so far, 3 have two or more sulfur atoms.
Order of results – 2A Renilla	StopGo FLuc
51	Cc1ccc(N(CC(=O)Nc2ccc(C)c(Cl)c2)S(=O)(=O)c2cccs2)cc1
→ -3%	-30%
86	CCCCNc1nc2c(S(=O)(=O)c3ccc(Cl)cc3)nnn2c2ccsc12
→ 74%[activator]	-22%
102	CC(C)CCNc1nc(C(=O)Nc2nccs2)cs1
→ -4%	46%[activator]

Screening data deposited in PubChem BioAssay by National Center for Advancing Translational Sciences (NCATS).
